High-throughput results: PubChem BioAssay, several laboratories
LANA-H2B inh = blockers of LANA interaction with H2A/H2B – biochemical, FP readout, HTS, primary screen | Protein LANA1 (Human herpesvirus 8 type P (isolate GK18)), Q9QR71 | cell-free LANA-H2A/H2B peptide, fluorescence polarization | inhibition, % (test concentration not listed) | hit rate 0.6% among 320,000 | AID 2629, 2010; in the data active = inhibition mostly above about 10%, no sharp cut-off; inactive = mostly below about 6.7%;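 note: stock transfer was 7.5 nL into about 10 µL; 0% = median of vehicle wells and 100% = median of positive control wells; one replicate is shown; the record names a cut of 25% in any replicate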
Beta2AR agonist = beta2AR agonists driving receptor internalization, primary screen, cell-based, FAP fluorogen, flow cytometry. hit rate 0.43% among 340,000. Beta-2 adrenergic receptor (Homo sapiens), P07550. response, % (concentration not given with the values). Am2.2-beta2AR cells; reference of the scale not given here;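 active = response above a set limit, near 3 SD of response in nonfluorescent compounds, cut at about 42% in these data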;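 note: stock transfer was 100 nL into about 11 µL; a reference agonist was the positive control; negative values mostly stem from fluorescent compounds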
Target sequence (P07550 whole entry, looked up): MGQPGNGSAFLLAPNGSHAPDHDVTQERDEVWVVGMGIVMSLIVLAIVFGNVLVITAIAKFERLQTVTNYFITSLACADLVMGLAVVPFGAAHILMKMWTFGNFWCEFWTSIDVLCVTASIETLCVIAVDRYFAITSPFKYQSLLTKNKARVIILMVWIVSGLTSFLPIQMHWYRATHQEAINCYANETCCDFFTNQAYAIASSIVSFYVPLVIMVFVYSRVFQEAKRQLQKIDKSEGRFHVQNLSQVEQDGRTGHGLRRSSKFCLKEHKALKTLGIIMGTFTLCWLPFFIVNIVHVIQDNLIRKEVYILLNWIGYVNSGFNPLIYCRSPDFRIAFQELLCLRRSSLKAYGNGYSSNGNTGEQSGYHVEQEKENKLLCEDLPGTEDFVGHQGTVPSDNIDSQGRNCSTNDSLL
RanGTP-Impb inh = inhibitors of RanGTP-importin-beta interaction, primary screen, biochemical, FRET, CFP-Ran, YFP-importin-beta, homogeneous; AID 2216, 2009; hit rate 1.1% among 300,000; inhibition, % (concentration not given with the values); Ran GTPase (GTP-bound) - importin-beta complex; cell-free CFP-Ran/YFP-importin-beta FRET ratio;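 active = most replicates above 15%; inconclusive = exactly half above 15%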;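 note: 0% = DMSO wells and 100% = Ran loaded with GDP instead of GTP; wells of about 40 µL received 100 nL stock; the first replicate is given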
Vif TR-FRET = inhibitors of Vif binding to APOBEC3G peptide, primary screen, biochemical, TR-FRET, GST-Vif 1-94, biotin-A3G peptide, dose response retest (AID 1117319) | hit rate 0.57% among 260,000 | inhibition, %; hits with a dose series show IC50 in µM | TR-FRET GST-Vif / biotin-A3G peptide binding; higher % means a stronger effect; test concentration not given here; strong numbers were not always called active | Virion infectivity factor (Human immunodeficiency virus type 1 group M subtype B (isolate …;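 active = above the screen mean plus three standard deviations and confirmed in dose response; inconclusive = results disagree or hit not tested in dose response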;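 note: Vif residues 1-94 fused to GST binding biotinylated APOBEC3G peptide 110-148; 0% = full assay without inhibitor and 100% = GST in place of GST-Vif; retest series ran down from 100 µM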
Calb FLC = C. albicans growth inhibition with fluconazole, primary screen, CaCi-2 strain, Alamar Blue fluorescence; C. albicans CaCi-2 (fluconazole-resistant clinical isolate) + fluconazole, 48 h; growth inhibition, % (test concentration not listed); hit rate 0.57% among 300,000; AID 1979, 2009;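 active = most replicates above 75%; inconclusive = exactly half above 75%; inactive = most below 75%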;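 note: all wells also contain fluconazole at 8 µg/ml as a sub-toxic cotreatment; 0% = median of DMSO wells and 100% = median of geldanamycin control wells; wells of about 8 µL received 7.5 nL stock; the first replicate is given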
ALR H2O2 inh = inhibitors of human ALR sulfhydryl oxidase, primary screen, biochemical, H2O2 detection, HRP-luminol luminescence, single point | inhibition, % (no concentration beside the values) | purified ALR, DTT oxidation | AID 485317, 2010 | hit rate 3.8% among 290,000;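 active = mean and each replicate at 75% or more; inconclusive = only one of the two met; inactive = neither met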;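 note: stock transfer was 7.5 nL into about 7.5 µL; 0% = neutral wells and 100% = wells with inactivated enzyme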
Target sequence (P55789 whole entry, looked up): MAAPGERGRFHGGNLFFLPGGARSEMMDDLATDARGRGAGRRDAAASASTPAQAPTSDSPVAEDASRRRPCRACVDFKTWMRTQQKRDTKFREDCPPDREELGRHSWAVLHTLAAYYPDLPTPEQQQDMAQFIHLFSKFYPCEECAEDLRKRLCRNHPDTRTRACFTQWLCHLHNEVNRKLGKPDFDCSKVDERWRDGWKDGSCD
HNF4A DNA FP = change in binding of human HNF4A to DNA, primary screen, biochemical, fluorescence polarization, FITC-DNA | Hepatocyte nuclear factor 4-alpha (Homo sapiens), P41235 | 1 h | activity change, % at 10 µM | hit rate 0.3% among 360,000 | AID 1224865, 2016; in the data active = activity change above about 30%, passing the limit was not always enough;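 note: controls were the assay level and a saturating level of protein; the project sought stronger binding though the title names inhibitors; some compounds called inactive have numbers as strong as hits; positive values seem to mean higher polarization but the record does not say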
Target sequence (P41235 whole entry, looked up): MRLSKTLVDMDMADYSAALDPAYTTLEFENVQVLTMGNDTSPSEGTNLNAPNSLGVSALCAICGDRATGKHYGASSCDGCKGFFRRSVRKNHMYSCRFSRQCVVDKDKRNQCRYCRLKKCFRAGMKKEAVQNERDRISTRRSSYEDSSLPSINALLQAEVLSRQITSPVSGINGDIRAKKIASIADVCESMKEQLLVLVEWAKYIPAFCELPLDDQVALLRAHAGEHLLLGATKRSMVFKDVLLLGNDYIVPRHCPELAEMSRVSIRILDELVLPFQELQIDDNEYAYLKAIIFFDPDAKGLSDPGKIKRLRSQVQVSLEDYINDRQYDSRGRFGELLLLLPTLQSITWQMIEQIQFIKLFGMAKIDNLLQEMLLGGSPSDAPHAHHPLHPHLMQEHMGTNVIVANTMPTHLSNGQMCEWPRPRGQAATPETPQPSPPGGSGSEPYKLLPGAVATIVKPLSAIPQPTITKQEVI
* = called active by the depositor; u = inconclusive; x = no result given; & = joins results of further samples.

SMILES	LANA-H2B inh	Beta2AR agonist	RanGTP-Impb inh	Vif TR-FRET	Calb FLC	ALR H2O2 inh	HNF4A DNA FP
Cn1nc(OCc2ccccc2)ccc1=O	6.4	-14	-0.5	-3%	2	-16	3.2
CN1C(=O)c2ccccc2C(C(=O)O)C1c1cccc(F)c1 (centres undefined)	-2.9	-1	-5.0	77%	7	11	2.1
O=C1CCCCC/C1=N/Nc1ccc(OCc2ccccc2)cc1	0.4	4	-8.8	11%	94*	99*	0.8
Cc1cccc(-c2n[nH]c(=S)n2-c2ccccc2)c1[N+](=O)[O-]	5.5	-4	-2.8	-5%	4	45	0.5
CCOC(=O)c1c(C)nc2sc3c(=O)n(-c4ccc(C(C)=O)cc4)cnc3c2c1-c1ccc(Cl)cc1	-1.0	7	0.6	0%	-1	2	2.2
COC(=O)c1ccc(CNC(=O)COC(=O)CC23CC4CC(CC(Br)(C4)C2)C3)cc1	5.4	1	u	x	-2	-1	-4.9
O=C(CSc1nnc(-c2ccncc2)n1-c1ccc(Cl)cc1)NCc1cccs1	0.6	-3	-4.2	21%	3	-11	-2.1
CCOc1ccccc1OCC(=O)NCc1ccco1	2.4	5	-0.8	26%	17	4	-2.8
CCOc1ccc(NC(=O)CN(C)C(=O)CN2C(=O)NC3(CCCC3)C2=O)cc1OCC	-2.7	2	-0.7	0%	0	-1	2.2
COc1ccc(C(=O)N2c3ccccc3C=CC2C#N)cc1 (centres undefined)	4.3	-6	1.0	-3%	59	-9	-0.1
CC1(C)C2C/C(=N\O)C(C)(/[N+]([O-])=C/c3cccc([N+](=O)[O-])c3)CC21 (centres undefined)	-4.8	4	2.9	4%	50	x	6.3
CC(C)(C)OC(=O)N1CCC(C(=O)N2CCC[C@H]2C(=O)O)CC1	-3.9	4	x	u	22	-20	2.9
CCOc1ccc(CNCCNC(=O)c2nonc2N)cc1	-1.1	-3	-2.0	-5%	-7	-1	1.8
O=C(C[n+]1ccc(-c2nnc3n2CCCCC3)cc1)c1ccc(Cl)cc1	1.7	-1	2.7	17%	-4	x	0.1
COc1cc(CNCc2ccncc2)cc(Br)c1OCc1ccccc1F	4.6	4	5.8	4%	-26	-1	-0.9
C=CCn1c(=N)c(C(=O)NCCCOC)cc2c(=O)n3ccccc3nc21	3.1	3	175*	-1%	-3	-3	0.7
O=C(NCCN1C(=O)S/C(=C\c2ccc(OC(F)F)cc2)C1=O)c1cnccn1	3.7	1	3.0	x	10	-2	-5.1
CCOc1ccccc1NC(=O)Nc1cc(C(=O)O)ccc1C	0.8	3	u	2%	-4	-10	-1.3
CC1(OC(=O)c2cnc3ccccc3n2)C(=O)C=C2C=C(c3ccc(C#N)cc3)OC=C2C1=O (centres undefined)	0.2	x	-6.6	x	10	0	x
Cc1ccccc1C(=O)NC1CCN(Cc2ccccc2)CC1	1.8	-2	-2.7	x	-11	-4	2.7

Entries of single compounds, quoted from the list. Values in the order: LANA-H2B inh | Beta2AR agonist | RanGTP-Impb inh | Vif TR-FRET | Calb FLC | ALR H2O2 inh | HNF4A DNA FP
Cn1nc(OCc2ccccc2)ccc1=O across the screens: 6.4 | -14 | -0.5 | -3% | 2 | -16 | 3.2
CN1C(=O)c2ccccc2C(C(=O)O)C1c1cccc(F)c1 (centres undefined) across the screens: -2.9 | -1 | -5.0 | 77% | 7 | 11 | 2.1
O=C(NCCN1C(=O)S/C(=C\c2ccc(OC(F)F)cc2)C1=O)c1cnccn1 across the screens: 3.7 | 1 | 3.0 | x | 10 | -2 | -5.1

An excerpt from above in order of molar mass, highest first.
SMILES	LANA-H2B inh	Beta2AR agonist	RanGTP-Impb inh	Vif TR-FRET	Calb FLC	ALR H2O2 inh	HNF4A DNA FP
COC(=O)c1ccc(CNC(=O)COC(=O)CC23CC4CC(CC(Br)(C4)C2)C3)cc1	5.4	1	u	x	-2	-1	-4.9
O=C(CSc1nnc(-c2ccncc2)n1-c1ccc(Cl)cc1)NCc1cccs1	0.6	-3	-4.2	21%	3	-11	-2.1
Cc1ccccc1C(=O)NC1CCN(Cc2ccccc2)CC1	1.8	-2	-2.7	x	-11	-4	2.7

6 entries from above in another layout:
| SMILES | LANA-H2B inh | Beta2AR agonist | RanGTP-Impb inh | Vif TR-FRET | Calb FLC | ALR H2O2 inh | HNF4A DNA FP |
| --- | --- | --- | --- | --- | --- | --- | --- |
| CCOC(=O)c1c(C)nc2sc3c(=O)n(-c4ccc(C(C)=O)cc4)cnc3c2c1-c1ccc(Cl)cc1 | -1.0 | 7 | 0.6 | 0% | -1 | 2 | 2.2 |
| COC(=O)c1ccc(CNC(=O)COC(=O)CC23CC4CC(CC(Br)(C4)C2)C3)cc1 | 5.4 | 1 | u | x | -2 | -1 | -4.9 |
| O=C(CSc1nnc(-c2ccncc2)n1-c1ccc(Cl)cc1)NCc1cccs1 | 0.6 | -3 | -4.2 | 21% | 3 | -11 | -2.1 |
| CCOc1ccccc1OCC(=O)NCc1ccco1 | 2.4 | 5 | -0.8 | 26% | 17 | 4 | -2.8 |
| CCOc1ccc(NC(=O)CN(C)C(=O)CN2C(=O)NC3(CCCC3)C2=O)cc1OCC | -2.7 | 2 | -0.7 | 0% | 0 | -1 | 2.2 |
| COc1ccc(C(=O)N2c3ccccc3C=CC2C#N)cc1 (centres undefined) | 4.3 | -6 | 1.0 | -3% | 59 | -9 | -0.1 |

(next part)
SMILES	LANA-H2B inh	Beta2AR agonist	RanGTP-Impb inh	Vif TR-FRET	Calb FLC	ALR H2O2 inh	HNF4A DNA FP
Cc1cc(NC(=O)CCN2C(=O)C3C4CCC(C4)C3C2=O)c(C)cc1Br (centres undefined)	-7.1	2	1.9	0%	-10	-24	1.7
Cc1ccc(C(=O)N[C@H](C(=O)NC2CCCCC2)C(C)C)cc1	6.5	1	x	x	x	x	-0.2
COc1cc(C(=O)NCc2cccc(Cl)c2)ccc1OCC(=O)N1CCOCC1	-4.9	-1	2.4	4%	-2	-7	-5.2
COC(=O)c1sc(N)c(C(=O)OC)c1Cn1ncc(Cl)c(Cl)c1=O	2.1	4	4.0	x	x	-17	1.5
COc1ccc2cc(-c3cc(C(=O)OCC(=O)Nc4c(C)n(C)n(-c5ccccc5)c4=O)c4ccccc4n3)ccc2c1	x	9	u	5%	-5	x	2.4
Cc1ccc(-n2ncc3c(=O)[nH]c(SCC(=O)N4CCCc5ccccc54)nc32)cc1	-3.4	3	2.4	-6%	23	-3	1.4
CSc1ccccc1NC(=O)CN(Cc1ccccc1)S(C)(=O)=O	1.5	1	4.0	5%	11	x	-1.6
COC(C[C@@H](O)C[C@@H](O)[C@H](C)OCc1ccccc1)OC	-13	-1	-1.4	x	6	-10	-1.8
O=C(Nc1cccc(NC(=O)c2ccccc2[N+](=O)[O-])n1)c1ccccc1[N+](=O)[O-]	0.2	-14	7.7	0%	1	x	2.3
C/C(=N\N(c1ccccc1)c1ccccc1)c1ccc(N)cc1	-7.7	-2	0.8	x	11	48	-0.3
CCOC(=O)C1CCCN(c2oc(-c3ccc(F)cc3)nc2C#N)C1 (centres undefined)	-0.1	7	2.0	-3%	0	x	-0.7
Cc1cc(C)n(CCNC(=O)CC2C(=O)NCCN2Cc2ccc(C)o2)n1 (centres undefined)	4.7	8	u	-10%	11	-14	-1.4
Cc1ccc(C(=O)N/N=C2\CCc3ccccc32)c(C)c1	-0.6	-7	0.1	-2%	7	-5	-2.2
CN(Cc1nc(-c2cnccn2)no1)Cc1cccc2ccccc12	2.8	4	1.1	-2%	6	-1	-3.0
O=C(C1CC(c2ccccc2O)=NO1)N1CCc2ccccc2C1 (centres undefined)	2.0	-5	0.4	0%	u	24	1.8
Cc1ccc(C(=O)N2CCCC(C(=O)c3cc(F)ccc3F)C2)s1 (centres undefined)	1.7	-11	1.9	8%	10	-7	-4.3
CCOc1ccc2nc(NC(=O)CN3CCN(c4ccccn4)CC3)sc2c1	1.1	x	0.7	73%	15	5	x
C/C(CC(=O)NCc1ccco1)=N\NC(=O)C(c1ccccc1)c1ccccc1	-4.7	7	-1.7	-7%	-1	-6	0.0
COc1ccc(NC(=O)NC2(C(=O)N3CCCC3)CCCCC2)cc1	2.5	0	-1.1	-6%	0	-8	1.9
O=C(Nc1cccc(-c2nc3ccccc3o2)c1)c1cccnc1	1.3	-7	-0.1	-13%	4	-1	0.8
CCOC(=O)C1=C(CC)Nc2ccccc2N=C1NC(=O)Nc1ccccc1OC	-1.5	3	-2.9	-5%&2%	-3	2	-2.9
COc1cccc(/C=N/NC(=O)c2cc3c(OC)ccc(OC)c3[nH]2)c1O	1.5	20	u	x	-19	12	-0.2
COc1ccc(NC(=S)NCc2ccc3c(c2)OCO3)cc1	0.1	0	-1.6	-5%	-21	-1	1.1
c1ccc(C2CNCc3c2ccc2ccccc32)cc1 (centres undefined)	-5.9	12	-4.3	11%	-6	-10	-0.5
O=C(NC(=S)Nc1ccccc1)C1CCCCC1	-4.2	-6	5.9	x	-8	0	0.3
O=C(Nc1nnc(-c2ccc3c(c2)CCCC3)o1)C1CCCCC1	x	12	-1.7	-5%	-5	x	5.9
CC1(C)COC(c2cccn2Cc2ccc(F)cc2Cl)=N1	-0.5	27	u	-7%	2	1	-3.0
O=C(c1cccc(S(=O)(=O)N2CCOCC2)c1)N1CCCC(C(F)(F)F)C1 (centres undefined)	3.6	-7	-1.3	-5%	-1	2	-1.1
CCCSc1nnc(NC(=O)CCc2ccccc2)s1	-1.2	6	5.9	x	13	-5	-3.9
CCN1CCN(Cc2nc3c(c(=O)n(C)c(=O)n3C)n2CC(=O)c2ccccc2)CC1	7.6	-8	0.1	1%	-3	98*	-44
CC(O)C(=O)N/N=C/c1cccc(Cl)c1Cl (centres undefined)	2.1	-5	2.1	-4%	-5	-4	-3.3
O=C(Nc1cccc(C(F)(F)F)c1)C1CCCO1 (centres undefined)	3.6	-6	7.5	-5%	-2	-7	-0.2
COc1ccccc1/C=C/C(=O)N1CCOCC1	1.0	0	-0.3	-6%	-4	-6	4.0
O=C(O)C1=C[C@H](c2ccc(F)cc2)C[C@H](OCCCCO)O1	0.0	-1	4.2	8%	12	x	-1.6
CCCn1c(=N)c(C(=O)NCC2CCCO2)cc2c(=O)n3cccc(C)c3nc21 (centres undefined)	1.2	-57	184*	-1%	3	-12	-2.3
COc1cccc(NC(=O)CN(C)C(=O)c2cc3ccccc3cc2OC)c1	-0.2	-3	x	8%	x	-20	-0.9
Cc1nn(C(=O)CCC(=O)NCc2ccc(OC(C)C)cc2)c2ccccc12	x	4	2.3	x	3	41	0.0
COc1ccc(/C=N/OC(=O)Nc2ccccc2)cc1[N+](=O)[O-]	1.0	1	-2.7	4%	-17	-6	3.8
O=C(CSc1nc2scc(-c3ccccc3)c2c(=O)[nH]1)N1CCCCC1	-3.8	-5	9.4	6%	2	-2	2.0
CCn1cnc2c1c(=O)n(CC(=O)NN)c(=O)n2Cc1ccccc1	-0.3	-1	2.8	-4%	8	x	0.0
CSc1nc(N2CCCC2)c2c(c1C#N)CC(C)(C)OC2	2.3	-1	8.2	1%	11	16	-0.4
Cc1c(C(=O)NCCSCc2ccc(F)cc2)cnn1-c1ccc(Cl)cc1	-2.4	4	3.3	-3%	-4	-1	1.2
CCOC(=O)CCN(Cc1sccc1C)S(=O)(=O)c1ccc(F)cc1	-1.3	-6	0.4	73%	10	-3	-0.4
